# High-throughput results (PubChem BioAssay)
# MT1-MMP reporter: MT1-MMP gene expression reporter suppression – cell-based, luciferase reporter, luminescence (AID 618) | 87,000 compounds, 0.62% hits | MT1-MMP promoter luciferase reporter cells, luminescence | calls from a first round at 10 µM; hits with a dose series show EC50 in µM;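 active = over half of the reporter light lost at 10 µM or EC50 under 50 µM; inactive = the rest and hits that failed the dose series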;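 note: actives suppress MT1-MMP promoter-driven transcription so potencies describe inhibitors; HT1080 fibrosarcoma cells; overnight exposure; toxic or luciferase-blocking compounds were not removed from the actives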
# WNV protease inh: inhibitors of West Nile virus NS2B-NS3 protease; WNV NS2B-NS3 protease, fluorogenic substrate Ex360/Em465; stronger effect = lower value; z-score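 (tested at a level between 10 and 100 µM)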; 65,000 compounds, 0.18% hits; AID 577;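 active = z-score at -3 or under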;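 note: score is relative to mean and spread of the compound wells of a plate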
# Target sequence (P06935 1371-1501 limits assumed): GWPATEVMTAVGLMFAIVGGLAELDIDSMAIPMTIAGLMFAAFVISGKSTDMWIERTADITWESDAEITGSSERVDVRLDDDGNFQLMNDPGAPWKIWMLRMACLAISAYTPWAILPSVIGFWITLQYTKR
# Target sequence (P06935 1502-1679 limits assumed): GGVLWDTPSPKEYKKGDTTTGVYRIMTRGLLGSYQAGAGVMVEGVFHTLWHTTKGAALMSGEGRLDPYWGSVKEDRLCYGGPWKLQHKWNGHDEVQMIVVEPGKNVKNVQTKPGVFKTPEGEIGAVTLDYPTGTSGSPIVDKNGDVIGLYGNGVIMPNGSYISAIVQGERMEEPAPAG
# Hsc70: small molecules displacing fluorescent ligand from Hsc70 – biochemical, fluorescence polarization, primary screen (AID 568); Hsc70 fluorescence polarization, probe displacement; higher % means a stronger effect; strong numbers were not always called active; 83,000 tested, under 10 active; displacement, % at 20 µM, or IC50 in µM where a hit was titrated;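 active = displacement above 50% without optical interference and an IC50 on retest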;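 note: ATPase domain with a fluorescein-tagged ATP probe; 0% = vehicle and 100% = excess ADP; read after one hour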
# The depositor's hits bear a star; i = inactive; · = no result given.
molecule	MT1-MMP reporter	WNV protease inh	Hsc70
O=C(Nc1nnc(COc2ccc(F)cc2)s1)c1cccs1	i	0.7	0.1%
FC(F)Sc1ccc(NC(=S)NC2CCCCC2)cc1	i	·	-2.4%
S=C1NC(c2ccccc2)N2C(=S)NC(c3ccccc3)N12 (stereo not given)	i	·	1.4%
CSc1nc(N)nc(SCC(=O)C(C)(C)C)c1C#N	i	·	1.3%
CCCC1C2CN(C(C)=O)CC=C2C(C#N)=C(N)C1(C#N)C#N (stereo not given)	i	-0.98	-0.3%
COc1cc(-c2nn3c(-c4cccnc4)nnc3s2)cc(OC)c1OC	i	0.41	5.9%
COc1ccc(-c2nc3ccccc3n2Cc2ccc(C)cc2)cc1	i	·	-1.2%
Cc1ccc(OCC(O)CNS(=O)(=O)c2ccccc2C(=O)N2CCCCC2)cc1 (stereo not given)	i	0.91	-8.3%
CCC(=O)N1c2ccc(S(=O)(=O)CCC(=O)N3CCN(c4ccccc4)CC3)cc2CC1C (stereo not given)	i	1.69	-2.5%
COc1cc2c(cc1OC)C(C(=O)O)C(c1ccc(C)o1)N(C)C2=O (stereo not given)	i	-0.01	3.2%
CCCc1nc(-c2ccccc2O)n(-c2ccccc2)n1	i	0.02	-2.3%
c1ccc(-c2n[nH]c3ccccc23)cc1	i	0.37	0.3%
CC(=O)NCCOc1ccc(C(=O)O)cc1	i	-0.67	-3.5%
O=C(O)c1cccc(NC(=O)c2cccc(S(=O)(=O)N3CCCCC3)c2)c1	i	-0.83	3.0%
CCN(CC)S(=O)(=O)c1ccc(C(=O)Nc2cc(C)cc(C)c2)cc1	i	·	-7.0%
CCNCc1cc(Br)c(OCC(=O)Nc2ccccc2)c(OC)c1	i	·	7.4%
COc1cc(SC)ccc1C(=O)Nc1ccc2c(c1)OCCO2	13.2µM*	-0.49	0.0%
Cc1cc(C)nc(SCC(=O)Nn2cnnc2)n1	i	1.12	1.0%
O=C(OC1CCOC1=O)c1cc(-c2ccc(Br)cc2)nc2ccccc12 (stereo not given)	i	·	-7.6%
CCCc1cc(=O)[nH]c(SCc2cc(Cl)ccc2OC(F)F)n1	i	·	-6.3%
CC(CN1CCOCC1)OC(=O)C(c1ccccc1)c1ccccc1 (stereo not given)	i	·	-1.3%
COc1ccc(C2C(C(=O)NCc3cccnc3)c3ccccc3C(=O)N2C)cc1OC (stereo not given)	i	-0.75	-1.0%
COc1cc2cc(C)c(SCC(=O)N3CCOCC3)nc2cc1OC	i	0.39	0.0%
Nc1nc(SCc2ccc3c(c2)OCCO3)n[nH]1	i	-0.34	-8.1%
CCOC(=O)c1sc2ccc(S(=O)(=O)N3CCOCC3)cc2c1N	i	0.1	-6.4%
Cc1ccccc1-c1noc(CCC(=O)NCC2CCCO2)n1 (stereo not given)	i	·	3.1%
CCCN1C(=O)C2(/C(=C(\O)c3ccc4c(c3)OCCO4)C(=O)C(=O)N2CCCOC)c2ccccc21 (stereo not given)	i	-1.5	-1.0%
O=C(c1ccco1)N1CCN(C(c2ccccc2)c2nnnn2Cc2cccs2)CC1 (stereo not given)	i	-0.45	0.3%
O=C(CCCCn1c(=O)[nH]c2ccccc2c1=O)N1CCN(c2ncccn2)CC1	i	0.49	0.7%
Cn1cnnc1SCC(=O)Nc1sccc1C#N	i	-0.02	0.2%
CCc1nnc(NC(=O)CCC(=O)N2CCN(CCOc3ccc(C)cc3)CC2)s1	i	-1.93	-2.0%
CC1=C(C(=O)OCc2ccccc2)C(c2ccccn2)c2c(n(C)c(=O)n(C)c2=O)N1 (stereo not given)	i	0.42	-1.7%
Cc1c(NC(=O)COc2ncnc3c(Cl)cc(Cl)cc23)c(=O)n(-c2ccccc2)n1C	i	0.06	-8.0%
CC(C)(C)c1ccc(NC(=O)CC2(C(F)(F)F)OCCO2)cc1	i	-0.69	-4.3%
C=CCn1c(=O)c2ccccc2n2c(SCc3c(C(=O)OCC)oc4ccccc34)nnc12	i	1.16	-2.7%
Cc1nc2sc(-c3ccccc3)cc2c(=O)n1-n1cccc1	i	-0.82	0.8%
CCOC(=O)c1ccccc1NC(=O)CN(c1ccccc1)S(=O)(=O)N(C)C	i	0.55	-2.6%
O=C(O)C1C2C=CC3(CN(C/C=C/c4ccccc4)C(=O)C13)O2 (stereo not given)	i	-0.43	-7.6%
CCN(CC)c1ccc(C2NC(=O)NC(C)=C2C(=O)Nc2ccccc2)cc1 (stereo not given)	i	0.91	-16.7%
O=S(=O)(c1ccccc1)N1CCC(N2CCCCCC2)CC1	i	0.39	12.4%

# 4 entries from above, field by field:
canonical_smiles: C=CCn1c(=O)c2ccccc2n2c(SCc3c(C(=O)OCC)oc4ccccc34)nnc12
  MT1-MMP reporter = i; WNV protease inh = 1.16; Hsc70 = -2.7%
canonical_smiles: CCNCc1cc(Br)c(OCC(=O)Nc2ccccc2)c(OC)c1
  MT1-MMP reporter = i; WNV protease inh = ·; Hsc70 = 7.4%
canonical_smiles: O=S(=O)(c1ccccc1)N1CCC(N2CCCCCC2)CC1
  MT1-MMP reporter = i; WNV protease inh = 0.39; Hsc70 = 12.4%
canonical_smiles: O=C(c1ccco1)N1CCN(C(c2ccccc2)c2nnnn2Cc2cccs2)CC1 (stereo not given)
  MT1-MMP reporter = i; WNV protease inh = -0.45; Hsc70 = 0.3%

# Additional records:
molecule	MT1-MMP reporter	WNV protease inh	Hsc70
Cc1ccc(C(=O)Nc2nc3nc(-c4ccccc4)cc(=O)n3[nH]2)cc1	i	·	2.5%
N#Cc1nc(-c2ccccc2F)oc1NCc1cccc2c1OCO2	i	-1.42	-5.3%
CC(C)N1CC2=C(OC(N)=C(C#N)C2c2cccnc2)/C(=C/c2cccnc2)C1 (stereo not given)	i	2.12	25.0%
O=C(Cn1cnc2ccccc2c1=O)NC1CCCc2ccccc21 (stereo not given)	i	-0.32	-0.7%
CC(C)CC(=O)Nc1ccc(Nc2ccccc2)cc1	i	·	-3.7%
CCNc1nc(NC(C)C)nc(Nn2cnnc2)n1	i	-0.3	2.8%
CN(C)C(=O)N1CCCC(C(=O)NCc2ccc(F)cc2Cl)C1 (stereo not given)	i	2.59	-4.0%
Cn1ccnc1SCC(=O)Nc1ccccc1	i	·	4.9%
CCN1CCN(S(=O)(=O)Cc2ccccc2)CC1	i	0.55	-0.8%
CCCc1cc(=O)[nH]c(SCC(=O)N2CCN(c3ccccc3)CC2)n1	i	0.78	-2.0%

# Of the compounds above, 3 contain a Cl atom:
molecule	MT1-MMP reporter	WNV protease inh	Hsc70
CCCc1cc(=O)[nH]c(SCc2cc(Cl)ccc2OC(F)F)n1	i	·	-6.3%
Cc1c(NC(=O)COc2ncnc3c(Cl)cc(Cl)cc23)c(=O)n(-c2ccccc2)n1C	i	0.06	-8.0%
CN(C)C(=O)N1CCCC(C(=O)NCc2ccc(F)cc2Cl)C1 (stereo not given)	i	2.59	-4.0%

# More entries
molecule	MT1-MMP reporter	WNV protease inh	Hsc70
CCNC(=O)NC1(C(=O)Nc2ccc3c(c2)CCC3)CCCCC1	i	-0.05	0.2%
Cc1cc(C)c(C#N)c(SCc2cc3c(cc2Cl)OCO3)n1	i	·	-4.0%
O=C(NCCCc1ccccc1)C1CCN(c2nnc(-n3cccc3)s2)CC1	i	-1.22	2.6%
COc1ccc(N/N=C2/CCCCC2=O)cc1	i	·	3.6%
CN(C1=C(N2CCCCC2)C(=O)c2ccccc2C1=O)c1ccccc1	i	·	4.5%
COc1ccc(OC)c(N=c2oc3cc(O)ccc3cc2C(N)=O)c1	i	0.07	0.5%
CC(C)(C)OC(=O)C1C(=O)CC(C)(O)C(C(=O)OC(C)(C)C)C1c1cccnc1 (stereo not given)	i	·	-2.4%
CC1(C)CC(=O)C(C=NCCCO)=C(O)C1	i	0.71	0.8%
CC(CCc1ccccc1)C(=O)NO (stereo not given)	i	0.44	-8.5%
Cc1cccc(-c2nsc(SCC(=O)Nc3nccs3)n2)c1	i	-1.17	-5.5%
O=C(NC1CCCC1)C(c1cccs1)N(C(=O)c1ccno1)c1ccccc1 (stereo not given)	i	0.18	-4.9%
COC(=O)Nc1ccc(S(=O)(=O)Nc2cccc3ccccc23)cc1	i	·	-0.2%
Cc1ccc(N(C(C)C(=O)O)S(=O)(=O)c2cccnc2)cc1 (stereo not given)	i	-1.29	-0.3%
O=C1CCC(=O)N1c1nc2nc(-c3ccccc3)cc(-c3ccccc3)n2n1	i	-0.52	-1.5%
c1ccc(OCCSc2nnc3sc4ccccc4n23)cc1	1.43µM*	-0.01	-1.0%
O=C(CN(C(=O)Cn1nnc(-c2cccs2)n1)c1cnc2ccccc2c1)NCC1CCCO1 (stereo not given)	i	1.31	-4.1%
Cn1c(N2CCOCC2)nc2c1c(=O)n(Cc1ccc(Cl)c(Cl)c1)c(=O)n2C	i	0.08	0.2%
COCCNc1oc(-c2ccc(C)cc2)nc1C#N	i	-0.46	-4.5%
O=C1CSC(=NC(=O)c2ccccc2)N1	i	-0.29	2.8%
CC(=O)c1cccc(N(CC(=O)O)S(C)(=O)=O)c1	i	1.22	0.0%

# (continued)
# Second line of a record: MT1-MMP reporter | WNV protease inh | Hsc70
Cc1cc(Nc2cc(C)on2)n2ncnc2n1
    i | -0.54 | 5.4%
Cc1ccccc1N=C/C=C1/C=C(c2ccccc2)OC(C)(C)O1
    i | · | -4.0%
CCCCCCn1cnc2c(c1=O)c1nc3ccccc3nc1n2/N=C/c1ccco1
    i | -0.42 | -7.2%
CCC(=O)NC(Nc1sc2c(c1C(=O)OC)CCN(C)C2)(C(F)(F)F)C(F)(F)F
    i | · | 1.7%
O=C(CSc1nc2ccccc2c(=O)n1-c1cccc(C(F)(F)F)c1)NC1CC1
    i | · | -2.3%
Cc1cccc(OCc2nnc(SCC(=O)c3cccs3)n2C)c1C
    i | 0.03 | -1.7%
O=C1CC(N2CCC(c3nc4ccccc4o3)CC2)C(=O)N1c1ccc(Cl)cc1 (stereo not given)
    i | 0.79 | -1.3%
O=C(C1CCCCC1)N(CCN1CCCC1)c1nc2ccccc2s1
    i | -1.01 | -0.7%
CCOC(=O)/C=c1\s/c(=C\c2ccc3c(c2)OCCO3)c(=O)n1CC(=O)NCC1CCCO1 (stereo not given)
    i | -0.17 | -48.8%
CCOC(=O)N1CCN(Cc2nc3c(c(=O)n(C)c(=O)n3C)n2Cc2ccc(F)cc2)CC1
    i | 0.15 | 4.3%
O=C(c1cnn2c(C(F)(F)F)cc(-c3ccco3)nc12)N1CCCCCC1
    i | -0.49 | -2.8%
Cc1nc2ccc(C(C(F)(F)F)(C(F)(F)F)C(F)(F)F)cc2[nH]1
    i | -0.99 | 3.8%
Cc1cccc(NC2=NC3(CCCCC3)N=C(N)N2)c1C
    i | -0.11 | 4.2%
CC(C)(C)NC(=O)CCC1COc2ccccc2O1 (stereo not given)
    i | · | 6.5%
CC(=O)c1c(C)[nH]c(C(=O)CSc2nnc(-c3ccccc3)n2Cc2ccc3c(c2)OCO3)c1C
    i | · | -1.2%
Cc1ccc2ncccc2c1NS(=O)(=O)c1ccccc1
    i | -0.82 | 5.9%
Cc1n[nH]c(C)c1S(=O)(=O)N1CCCC(C(=O)Nc2ccc3c(c2)OCCO3)C1 (stereo not given)
    i | -0.25 | 2.4%
Cc1ccccc1C(=O)Nc1ccc2c(c1)OCO2
    i | -0.34 | -0.7%
CCOC(=O)C(CSCC(=O)c1ccc(Cl)cc1Cl)NC(=O)OC(C)(C)C (stereo not given)
    i | · | -7.0%
CCc1nc(SCC(=O)O)c(C#N)cc1C
    i | · | 4.7%
CC(C)(C)c1cc(C(=O)O)nn1-c1ccccc1
    i | -0.24 | 8.8%
O=C(O)c1cccc(NS(=O)(=O)c2cccc3cccnc23)c1
    i | 0.8 | -0.3%
O=C(c1cnn2c1NC(c1ccc(Br)cc1)CC2C(F)(F)F)N1CCN(C23CC4CC(CC(C4)C2)C3)CC1 (stereo not given)
    i | · | -5.4%
CC(=O)c1[nH]c(C)c(C(C)=O)c1C
    i | · | -2.4%
NC(=O)c1sc2nc3c(c(-c4cccs4)c2c1N)CCCC3
    i | 0.75 | 7.2%
Cc1c(C(O)CN2CCC(C(N)=O)CC2)c2ccccc2n1C (stereo not given)
    i | 0.98 | -6.4%
CCOC(=O)CC(=O)CSc1nc2c(c(C)c1C#N)CCC2
    i | -0.03 | 4.7%
CCOC(=O)C1CCN(C(=O)C2(NC(=O)Nc3ccccc3Cl)CCCCC2)CC1
    i | 0.71 | 1.9%
CC(C)OC(=O)CCNc1n[nH]c(=O)[nH]c1=O
    i | 0.71 | -3.3%
CCn1c(SCC(N)=O)nc2c(c1=O)C1(CCCC1)Cc1ccccc1-2
    i | · | -5.2%
Cc1cc(C)c2cc(CN(Cc3nnnn3Cc3ccc(F)cc3)C3CCCC3)c(=O)[nH]c2c1
    i | · | 6.9%
CCCCOC(=O)CNc1n[nH]c(=S)[nH]c1=O
    i | · | -2.5%
CCOC(=O)N1CCC(NC(=O)c2ccc(CNS(=O)(=O)c3ccc(F)cc3)cc2)CC1
    i | 0.52 | 0.8%
CCn1cnc2scc(-c3ccccc3)c2c1=O
    i | -0.16 | 3.4%
CCNCCC(=O)N1c2ccccc2Sc2ccc(NC(=O)OCC)cc21
    i | · | 4.5%
COc1ccc(/C(O)=C2/C(=O)C(=O)N(CC3CCCO3)C2c2cccc(O)c2)cc1 (stereo not given)
    i | · | 0.4%
COc1ccc(CNC(=O)C2CCN(C(=O)N3CCOc4ccc(C)cc43)CC2)cc1
    i | -1.64 | 1.1%
COc1ccc(C2CC(c3c(Cl)cccc3Cl)n3nc(N)nc3N2)cc1 (stereo not given)
    i | 0.44 | 2.2%
